Bioassay records from PubChem BioAssay.
HIV Env fusion: blocks HIV Env-driven cell-cell fusion. HeLa-JRFL Env/CEM21 cell fusion, luciferase. inhibition, % at 12.3 µM. actives 1.1% (n = 360,000);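 active = mean replicate inhibition score of at least 50 and every replicate individually at or above 50; inconclusive = only one of the two criteria met; inactive = mean below 50 and not all replicates reaching 50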;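 also: 0% = plate neutral controls and 100% = maraviroc near 300 nM; one replicate is shown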
Yeast UUG start: yeast start codon fidelity modulation; actives 0.13% (n = 350,000); S. cerevisiae UUG-firefly luciferase reporter, luminescence/redox ratio; activity score, % at 18.7 µM;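 active = replicate mean at a twofold rise or more, about +100% in these data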;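 also: firefly luciferase made from a UUG start codon reports start codon fidelity; reporter light over untreated wells divided by growth signal over untreated wells; some hits fall short of that in this replicate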
eIF4H inh: inhibitors of RNA binding by human eIF4H; eIF4H fluorescence polarization binding assay; inhibition, % at 35 µM; actives 0.94% (n = 290,000); AID 2012;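 active = 50% or more with normal probe brightness, or confirmed in later tests; inconclusive = above 50% with abnormal brightness, or retests that disagree; inactive = below 50% or failed in later tests; about a fifth of its hits are not listed in these tables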;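 also: calls also rest on retests at 20 µM and on dose response follow-up; 0% = protein and probe with vehicle and 100% = probe without protein; strong numbers were not always called active; many hits fall short of the cut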
MT1-MMP act inh: inhibitors of human MT1-MMP activation; P50281; actives 0.061% (n = 360,000); GFP/RFP ratio change, % at 20 µM; HT1080 RFP-PRO-GFP cells, GFP/RFP ratio fluorescence, overnight; percent of plate control window, DMSO zero;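 active = GFP/RFP ratio change of at least 30% with cell ATP level not reduced by more than half and red fluorescence within 50% of control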; also: strong numbers were not always called active
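Assay system: HT1080 cells carrying an RFP-PRO-GFP reporter | Dosing: Single dose of 20 µM compound, 1% DMSO final | Incubation: Cells overnight before dosing, compound overnight, 37 °C, 5% CO2 | Evaluation: GFP/RFP fluorescence ratio | Control set: DMSO and RFP-L50D-GFP cell wells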
Rce1 inhib: yeast Ras-converting enzyme inhibition. actives 0.27% (n = 290,000). calls only. AID 2563. Q03530. yeast membranes, quenched prenylated peptide cleavage fluorescence;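 active = fall in fluorescence gain of 50% or more versus controls, with final raw signal at or below 3038400; inconclusive = same 50% fall but final raw signal above 3038400; inactive = fall in fluorescence gain under 50%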;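 also: plate controls were neutral control wells for no effect and wells lacking membranes for full effect; tested at 10 µM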
Target sequence (Q03530 whole entry, looked up): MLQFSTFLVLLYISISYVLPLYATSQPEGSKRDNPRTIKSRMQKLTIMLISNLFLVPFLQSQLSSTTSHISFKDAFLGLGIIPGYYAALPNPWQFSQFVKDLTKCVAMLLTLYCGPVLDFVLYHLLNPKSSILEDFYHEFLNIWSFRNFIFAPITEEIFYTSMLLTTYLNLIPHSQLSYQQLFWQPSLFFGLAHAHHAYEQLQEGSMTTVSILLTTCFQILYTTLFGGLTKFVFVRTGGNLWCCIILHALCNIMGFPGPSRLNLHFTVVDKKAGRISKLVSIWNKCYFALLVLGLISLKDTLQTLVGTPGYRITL
PABP polyA inh: PABP-poly(A) binding inhibition; AID 2014; actives 1% (n = 290,000); PABP-poly(A) RNA binding, fluorescence polarization; inhibition, % at 35 µM; P11940;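 active = 50% or more with normal probe brightness, or confirmed in later tests; inconclusive = above 50% with abnormal brightness, or retests that disagree; inactive = below 50% or failed in later tests; about a fifth of its hits are not listed in these tables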;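 also: calls also rest on retests at 20 µM and on dose response follow-up; controls were probe without protein and protein plus probe with vehicle; some compounds called inactive have numbers as strong as hits; many hits fall short of the cut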
CSC inhib: blocks cancer stem cells. actives 1.1% (n = 300,000). cancer stem cell-like cells viability, luminescence. inhibition, % at 7.5 µM;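 active = mean at 75% or more and at least half the replicates too; inconclusive = mean and replicates disagree; tested in HMLE shEcad cells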;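 also: 0% = median of negative and 100% = median of positive control wells; the first replicate is given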
MT1-MMP act inh RFP: second read-out of MT1-MMP act inh, no call of its own (marks repeat the call); RFP signal change, %; measured here: RFP expression control read;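 0 = vehicle wells; hits needed this value within 50% of zero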
An asterisk follows results filed as active. Not all compounds are listed; rates above refer to the full screens.

For CC(=O)C1=C(O)C(=O)N(c2nnn(C)n2)C1c1cccs1 (stereo unspecified) the results were HIV Env fusion 6, Yeast UUG start 6, eIF4H inh -4, MT1-MMP act inh 1, Rce1 inhib inactive, PABP polyA inh 33, CSC inhib 11 and MT1-MMP act inh RFP 8.
CCCCCOc1ccc(C(=O)C(c2ccccc2)N2CCOCC2)cc1 (stereo unspecified) was read as HIV Env fusion 21, Yeast UUG start -9, eIF4H inh -9, MT1-MMP act inh -2, Rce1 inhib inactive, PABP polyA inh -3, CSC inhib -8 and MT1-MMP act inh RFP -4.
`COc1cc(NC(=O)Cn2c(=O)n(CC3CCCO3)c(=O)c3cc(OC)c(OC)cc32)cc(OC)c1` (stereo unspecified) gave HIV Env fusion -6, Yeast UUG start 5, eIF4H inh -4, MT1-MMP act inh -1, Rce1 inhib inactive, PABP polyA inh -14, CSC inhib 3 and MT1-MMP act inh RFP 1.
C=CCN1c2ccc(Br)cc2C(=O)CS1(=O)=O was read as HIV Env fusion -68, Yeast UUG start -8, MT1-MMP act inh 3, CSC inhib 19 and MT1-MMP act inh RFP 1.
`Cc1ccc(S(=O)(=O)N2C[C@@H]3[C@H]4CC[C@H](C4)[C@@H]3[C@@H](C)[C@@H]2c2ccco2)cc1` gave HIV Env fusion 29, Yeast UUG start -10, MT1-MMP act inh -6 and MT1-MMP act inh RFP -10.
For O=S(=O)(Nc1cccc(-c2cn3cccnc3n2)c1)c1ccc(Cl)cc1 the results were Yeast UUG start -14, eIF4H inh -2, MT1-MMP act inh 3, Rce1 inhib inactive, PABP polyA inh -7, CSC inhib -5 and MT1-MMP act inh RFP -3.
For COc1cc(C(=O)NC2CCCCC2)ccc1OCc1ccc(Cl)cc1Cl the results were HIV Env fusion 7, eIF4H inh -5, MT1-MMP act inh 1, Rce1 inhib inactive, PABP polyA inh -3, CSC inhib 7 and MT1-MMP act inh RFP 2.
Screening CCCOc1ccc(/C=C/C(=O)Nc2ccc([N+](=O)[O-])cc2C)cc1 returned HIV Env fusion 1, Yeast UUG start -5, eIF4H inh 1, MT1-MMP act inh -13, Rce1 inhib inactive, PABP polyA inh 6, CSC inhib 5 and MT1-MMP act inh RFP -6.
`CC(C)C(=O)NC(=S)Nc1ccccc1C(F)(F)F` gave Yeast UUG start -11, eIF4H inh -2, MT1-MMP act inh -3, Rce1 inhib inactive, PABP polyA inh 10, CSC inhib 0 and MT1-MMP act inh RFP -2.
For COc1cc(OC)cc(C(=O)Nc2cccc3c2CCCC3)c1 the results were HIV Env fusion 28, Yeast UUG start -13, eIF4H inh 8, MT1-MMP act inh 2, Rce1 inhib inactive, PABP polyA inh 16, CSC inhib -4 and MT1-MMP act inh RFP -1.
CC(=O)Nc1ccc(S(=O)(=O)NCC(=O)OCc2cc(=O)oc3ccc4ccccc4c23)cc1 was read as eIF4H inh 11, MT1-MMP act inh -2, Rce1 inhib inactive, PABP polyA inh 0, CSC inhib -5 and MT1-MMP act inh RFP 0.
Screening CC(=O)OC[C@]1(OC(C)=O)C[C@@]23CC[C@H]4[C@@](C)(CCC[C@@]4(C)C(=O)O)[C@@H]2CC[C@@H]1C3 returned HIV Env fusion 3, Yeast UUG start 13, eIF4H inh 3, MT1-MMP act inh 2, Rce1 inhib inactive, PABP polyA inh 10, CSC inhib -12 and MT1-MMP act inh RFP 3.
For C=CCN1C(=O)C2(C(C(=O)c3ccc(C)o3)=C(O)C(=O)N2CCCN2CCOCC2)c2ccccc21 (stereo unspecified) the results were Yeast UUG start -19, eIF4H inh 19, MT1-MMP act inh -1, Rce1 inhib inactive, PABP polyA inh 4, CSC inhib -3 and MT1-MMP act inh RFP 5.
Screening c1ccc(-c2csc(Nc3ccccn3)n2)cc1 returned HIV Env fusion -156, Yeast UUG start -34, eIF4H inh 3, MT1-MMP act inh 1, PABP polyA inh 0, CSC inhib 2 and MT1-MMP act inh RFP -14.
Cc1ccc(CN(C(=O)Cn2nnc3ccccc32)C(C(=O)NCc2ccco2)c2cccs2)cc1 (stereo unspecified) was read as Yeast UUG start -13, eIF4H inh 10, MT1-MMP act inh -5, Rce1 inhib inactive, PABP polyA inh -1, CSC inhib -13 and MT1-MMP act inh RFP -8.
For N/C(CCN1CCOCC1)=N/O the results were HIV Env fusion 24, Yeast UUG start -9, eIF4H inh -6, MT1-MMP act inh 1, Rce1 inhib inactive, PABP polyA inh 10, CSC inhib -2 and MT1-MMP act inh RFP 2.
For CSCc1c(C(=O)NCCc2ccccn2)oc2ccccc12 the results were HIV Env fusion 6, Yeast UUG start -1, eIF4H inh -5, MT1-MMP act inh 3, Rce1 inhib inactive, PABP polyA inh 0, CSC inhib -6 and MT1-MMP act inh RFP -1.
O=C(c1cc2ccccc2o1)N1CCN=C1SCc1cccnc1 was read as HIV Env fusion -42, Yeast UUG start -17, eIF4H inh -5, MT1-MMP act inh 12, Rce1 inhib inactive, PABP polyA inh 4, CSC inhib 12 and MT1-MMP act inh RFP 14.
For Cc1ccc(-n2c(SCC(=O)N3CC(=O)Nc4ccccc43)nc3ccccc3c2=O)cc1C the results were HIV Env fusion 19, Yeast UUG start -11, eIF4H inh -8, MT1-MMP act inh -4, Rce1 inhib inactive, PABP polyA inh 8, CSC inhib -3 and MT1-MMP act inh RFP -6.
For CCC(C)Sc1nc(O)cc(=O)[nH]1 (stereo unspecified) the results were HIV Env fusion -18, Yeast UUG start -38, eIF4H inh 2, MT1-MMP act inh 1, Rce1 inhib inactive, PABP polyA inh 9, CSC inhib -7 and MT1-MMP act inh RFP 4.
Screening Cc1ccc(CNC(=O)COC(=O)c2cc(C)oc2C)cc1 returned Yeast UUG start 6, MT1-MMP act inh 3, CSC inhib 4 and MT1-MMP act inh RFP 11.
For Cc1cc(C(=O)NC(C)c2ccc3c(c2)OCO3)cs1 (stereo unspecified) the results were HIV Env fusion 20, eIF4H inh 6, MT1-MMP act inh -6, Rce1 inhib inactive, PABP polyA inh 0, CSC inhib -4 and MT1-MMP act inh RFP -1.
Screening Cc1csc(NC(=O)C2C3C=CC(C3)C2C(=O)O)n1 (stereo unspecified) returned HIV Env fusion -35, Yeast UUG start -6, eIF4H inh -1, MT1-MMP act inh -3, Rce1 inhib inactive, PABP polyA inh 3, CSC inhib -17 and MT1-MMP act inh RFP 3.
For CC(C)C[C@H](N)c1nnc(SCc2ccc(Cl)cc2)o1 the results were HIV Env fusion 15, Yeast UUG start -6, eIF4H inh -1, MT1-MMP act inh -2, Rce1 inhib inactive, PABP polyA inh 6, CSC inhib 39 and MT1-MMP act inh RFP 1.
For COc1ccc(C(C)C)cc1-c1cc(C(=O)NCc2cc(C(F)(F)F)cc(C(F)(F)F)c2)[nH]n1 the results were HIV Env fusion 27, Yeast UUG start -12, MT1-MMP act inh -1 and MT1-MMP act inh RFP 2.
`CCOC(=O)C1=C(C)NC(C)=C(C(=O)OCC)C1C(=O)OCC(=O)N(C)C` gave HIV Env fusion -5, Yeast UUG start 4, eIF4H inh -1, MT1-MMP act inh 3, Rce1 inhib inactive, PABP polyA inh -7, CSC inhib -4 and MT1-MMP act inh RFP 7.
Screening CCN1CC=C2C(C#N)=C(N)C(C#N)(C#N)C(CCc3ccccc3)C2C1 (stereo unspecified) returned HIV Env fusion 6, Yeast UUG start -15, eIF4H inh inconclusive, MT1-MMP act inh -87, PABP polyA inh inconclusive, CSC inhib 4 and MT1-MMP act inh RFP 6.
For COc1ccc(C(=O)N2CCc3ccccc32)cc1 the results were HIV Env fusion -25, Yeast UUG start -14, eIF4H inh -1, MT1-MMP act inh 4, PABP polyA inh -2, CSC inhib -1 and MT1-MMP act inh RFP 5.
Screening CN(CC(=O)N1CCCCCC1)S(=O)(=O)c1ccccc1 returned HIV Env fusion -16, Yeast UUG start -21, eIF4H inh -9, MT1-MMP act inh -1, PABP polyA inh -2, CSC inhib -12 and MT1-MMP act inh RFP 2.
N#Cc1ccccc1COC(=O)c1cc(S(=O)(=O)N2CCOCC2)ccc1F was read as HIV Env fusion -34, Yeast UUG start -19, MT1-MMP act inh 3 and MT1-MMP act inh RFP 4.
O=C(O)c1ccccc1NN=C1CCCCC1 was read as HIV Env fusion -19, Yeast UUG start -20, eIF4H inh -4, MT1-MMP act inh 7, Rce1 inhib inactive, PABP polyA inh 1, CSC inhib 1 and MT1-MMP act inh RFP 4.
Screening CCOc1cc(S(=O)(=O)NCc2ccncc2)c(C)cc1C returned HIV Env fusion 19, eIF4H inh -10, MT1-MMP act inh 3, Rce1 inhib inactive, PABP polyA inh 12, CSC inhib -12 and MT1-MMP act inh RFP 0.
Screening Cc1ccc(C(C)C)cc1OCC(=O)NCCCn1ccnc1 returned HIV Env fusion 12, Yeast UUG start -6, MT1-MMP act inh -7, CSC inhib 60 and MT1-MMP act inh RFP -5.
`O=C(/C=C/c1ccco1)Nc1ccc(S(=O)(=O)N2CCOCC2)cc1` gave HIV Env fusion 11, Yeast UUG start -14, eIF4H inh 1, MT1-MMP act inh 5, Rce1 inhib inactive, PABP polyA inh 10, CSC inhib -6 and MT1-MMP act inh RFP 3.
`Cn1cccc1C(C(=O)NC1CCCCC1)N(C(=O)Cc1cccs1)C1CC1` (stereo unspecified) gave Yeast UUG start -8, eIF4H inh 3, MT1-MMP act inh 4, Rce1 inhib inactive, PABP polyA inh -1, CSC inhib 5 and MT1-MMP act inh RFP 2.
For Cc1cc(=O)oc2ccc(OC(=O)CC(C)C)cc12 the results were HIV Env fusion -9, eIF4H inh -4, MT1-MMP act inh 4, Rce1 inhib inactive, PABP polyA inh -15, CSC inhib -2 and MT1-MMP act inh RFP 4.
Screening C/C(CC(=O)Nc1cccc(Cl)c1)=N\NC(=O)Cc1ccc(Cl)cc1 returned HIV Env fusion -31, Yeast UUG start -8, eIF4H inh 1, Rce1 inhib inactive, PABP polyA inh 4 and CSC inhib -6.
CCOc1ccc(OCC(O)CN2CCN(S(=O)(=O)c3cccc(C(F)(F)F)c3)CC2)cc1 (stereo unspecified) was read as HIV Env fusion 4, Yeast UUG start -6, eIF4H inh 33, MT1-MMP act inh 5, Rce1 inhib inactive, PABP polyA inh 21, CSC inhib -8 and MT1-MMP act inh RFP -5.
For COc1ccccc1NC(=S)Nc1cccc(F)c1 the results were Yeast UUG start -16, eIF4H inh 3, MT1-MMP act inh 5, Rce1 inhib inactive, PABP polyA inh -1, CSC inhib -15 and MT1-MMP act inh RFP 5.
Screening CCN1CCN(C(=O)NC2CC(=O)N(c3ccc(OC)cc3)C2)CC1 (stereo unspecified) returned HIV Env fusion 11, eIF4H inh -7, MT1-MMP act inh -1, Rce1 inhib inactive, PABP polyA inh -2, CSC inhib -7 and MT1-MMP act inh RFP 0.
For CCN(CC)S(=O)(=O)c1ccc(N2CCOCC2)c(NC(=O)Cc2cccc3ccccc23)c1 the results were HIV Env fusion -14, eIF4H inh 10, MT1-MMP act inh -6, Rce1 inhib inactive, PABP polyA inh -1, CSC inhib -15 and MT1-MMP act inh RFP -6.
For Cc1ccc(C(=O)c2cc(C)sc2NC(=O)CN2CCN(C(=O)c3ccco3)CC2)cc1 the results were HIV Env fusion 26, Yeast UUG start -4, eIF4H inh -7, MT1-MMP act inh -13, Rce1 inhib inactive, PABP polyA inh -2, CSC inhib 22 and MT1-MMP act inh RFP -17.
`COc1ccc(S(=O)(=O)n2cccc2)cc1` gave HIV Env fusion 6, Yeast UUG start -12, MT1-MMP act inh -1, Rce1 inhib inactive, CSC inhib -12 and MT1-MMP act inh RFP -1.
Screening CC(=O)c1ccc(OCCCC(=O)N(CCC2=CCCCC2)c2c(N)n(Cc3ccccc3)c(=O)[nH]c2=O)cc1 returned HIV Env fusion 1, MT1-MMP act inh -4, Rce1 inhib inactive, CSC inhib 0 and MT1-MMP act inh RFP -9.
